Bioassay records from PubChem.
T cruzi inh: inhibitors of intracellular T. cruzi growth, primary screen, luminescence, NIH3T3 host cells | T. cruzi beta-gal in NIH3T3, 90 h | inhibition, % (no concentration beside the values) | hit rate 1.4% among 300,000;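 active = mean inhibition across valid replicates above about 55%, limit read from the data; inconclusive = mean below that limit but half or more replicates reach it; inactive = mean below it, under half of replicates reach it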;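 note: signal also drops with host cell toxicity which is not excluded here; 0% = plate median of DMSO wells and 100% = zero luminescence signal; higher percent means less beta-gal luminescence so fewer parasites; stock transfer was 50 nL into about 50 µL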
Beta apoptosis: inhibitors of cytokine-induced beta cell apoptosis, primary screen, luminescence. INS-1E cytokine-induced death, ATP luminescence, 48 h; percent of positive-control rescue, neutral wells zero. protection from apoptosis, % (test concentration not listed). hit rate 0.8% among 300,000;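 active = all replicates at 75% or more, or half of them and the mean; inconclusive = half reach 75% but not the mean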;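 note: 0% = cytokine-treated negative control wells and 100% = positive control rescue; higher means more ATP so stronger rescue from cytokine killing; wells of about 40 µL received 100 nL stock; the first replicate is given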
ALR inh: inhibitors of human ALR sulfhydryl oxidase, primary screen, biochemical, H2O2 detection, HRP-luminol luminescence, single point; purified ALR, DTT oxidation; inhibition, % (no concentration beside the values); hit rate 3.8% among 290,000;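 active = mean and each replicate at 75% or more; inconclusive = only one of the two met; inactive = neither met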;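 note: stock transfer was 7.5 nL into about 7.5 µL; 0% = neutral wells and 100% = wells with inactivated enzyme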
Target sequence (P55789 whole entry, looked up): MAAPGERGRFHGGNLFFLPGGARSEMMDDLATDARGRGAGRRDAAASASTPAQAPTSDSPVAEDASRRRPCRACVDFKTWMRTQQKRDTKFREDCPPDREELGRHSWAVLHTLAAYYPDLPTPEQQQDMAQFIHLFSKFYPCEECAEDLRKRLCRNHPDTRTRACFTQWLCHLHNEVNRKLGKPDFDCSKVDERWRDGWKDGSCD
Calb FLC: C. albicans growth inhibition with fluconazole, primary screen, CaCi-2 strain, Alamar Blue fluorescence; growth inhibition, % (no concentration beside the values); C. albicans CaCi-2 (fluconazole-resistant clinical isolate) + fluconazole, 48 h; hit rate 0.57% among 300,000;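 active = most replicates above 75%; inconclusive = exactly half above 75%; inactive = most below 75%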;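 note: all wells also contain fluconazole at 8 µg/ml as a sub-toxic cotreatment; 0% = median of DMSO wells and 100% = median of geldanamycin control wells; wells of about 8 µL received 7.5 nL stock; the first replicate is given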
FGF22 binding: binders of human FGF22 protein, primary screen, FGF22 synaptogenesis inhibitor project, biophysical, thermal shift, single point; Fibroblast growth factor 22 (Homo sapiens), Q9HCT0; recombinant FGF22 thermal shift, SYPRO orange fluorescence; percent of sucrose octasulfate shift, DMSO zero; hit rate 1.5% among 340,000; calls only at 9.99 µM;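 active = melting point raised past a set limit in the mean and every replicate; inconclusive = no clear call; three in four hits are not shown here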
Target sequence (Q9HCT0 whole entry, looked up): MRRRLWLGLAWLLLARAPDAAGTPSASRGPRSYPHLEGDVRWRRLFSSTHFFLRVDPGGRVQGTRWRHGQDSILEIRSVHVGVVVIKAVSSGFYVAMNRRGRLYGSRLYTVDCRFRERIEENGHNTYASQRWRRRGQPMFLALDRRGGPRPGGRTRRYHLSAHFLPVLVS
Ecoli rRNA inh: reduced GFP signal of wild-type E. coli, primary screen, bacterial rRNA inhibitor project, GFP/RFP fluorescence, OD600, single point; GFP signal change (wild-type ribosome), % (concentration not given with the values); E. coli WT GFP vs humanized-ribosome RFP mutants, 24 h; stronger effect = lower value; DMSO median 0, no signal -100; hit rate 1.6% among 350,000;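 active = significant combined selectivity score with lowered wild-type GFP, culture density cut under 30%, mutant RFP and density less affected; inactive = any of these conditions unmet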; note: one replicate is shown; some compounds called inactive have numbers as strong as hits
RanGTP-Impb inh: inhibitors of RanGTP-importin-beta interaction, primary screen, biochemical, FRET, CFP-Ran, YFP-importin-beta, homogeneous; Ran GTPase (GTP-bound) - importin-beta complex; cell-free CFP-Ran/YFP-importin-beta FRET ratio; inhibition, % (concentration not given with the values); hit rate 1.1% among 300,000; AID 2216, 2009;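 active = most replicates above 15%; inconclusive = exactly half above 15%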;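 note: 0% = DMSO wells and 100% = Ran loaded with GDP instead of GTP; wells of about 40 µL received 100 nL stock; the first replicate is given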
AF4-AF9 inh: inhibitors of AF4 peptide binding to AF9, primary screen, biochemical, AlphaScreen, biotin-AF4 peptide, FLAG-AF9, single point; Protein AF-9 (Homo sapiens), P42568; inhibition, % at 10 µM; hit rate 0.47% among 350,000; AID 651704, 2012;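 active = every replicate reaching a set inhibition limit, whatever the replicate mean, cut at about 25% in these data; inconclusive = mean inhibition reaches that limit but some replicates miss it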;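 note: 0% = plate neutral control median and 100% = total signal loss; the record names both 10 and 1 µM as test concentration; the first replicate is given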
Target sequence (P42568 whole entry, looked up): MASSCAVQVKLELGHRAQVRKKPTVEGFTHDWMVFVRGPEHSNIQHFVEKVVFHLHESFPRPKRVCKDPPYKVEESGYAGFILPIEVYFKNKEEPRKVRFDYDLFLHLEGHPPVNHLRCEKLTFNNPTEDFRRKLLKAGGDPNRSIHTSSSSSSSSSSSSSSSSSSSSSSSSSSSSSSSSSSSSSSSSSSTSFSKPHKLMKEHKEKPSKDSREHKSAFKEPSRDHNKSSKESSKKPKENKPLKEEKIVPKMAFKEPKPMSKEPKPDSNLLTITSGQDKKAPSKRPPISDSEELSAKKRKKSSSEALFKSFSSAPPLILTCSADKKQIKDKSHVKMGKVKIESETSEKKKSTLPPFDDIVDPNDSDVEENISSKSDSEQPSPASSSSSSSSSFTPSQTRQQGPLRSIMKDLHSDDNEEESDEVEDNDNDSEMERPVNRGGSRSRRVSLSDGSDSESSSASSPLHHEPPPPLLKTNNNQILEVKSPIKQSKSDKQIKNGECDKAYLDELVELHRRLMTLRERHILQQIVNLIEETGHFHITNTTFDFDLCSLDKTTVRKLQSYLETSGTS
Ecoli rRNA inh OD600: recorded beside Ecoli rRNA inh, whose call it bears; OD600 change, %; measured here: OD600 growth;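 optical density of the mix in the first replicate; 0 = DMSO median and -100 = no signal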
Ecoli rRNA inh RFP: also measured in Ecoli rRNA inh; calls as there; RFP signal change, %; measured here: RFP humanized mutant strains;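 first replicate; 0 = DMSO median and -100 = no signal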
* hit, by the source's call; i = inactive; ? = inconclusive; nt = not tested or not shown.

SMILES	T cruzi inh	Beta apoptosis	ALR inh	Calb FLC	FGF22 binding	Ecoli rRNA inh	Ecoli rRNA inh OD600	Ecoli rRNA inh RFP	RanGTP-Impb inh	AF4-AF9 inh
O=c1cc(CN2CCN(c3ccc(O)cc3)CC2)nc2scc(-c3ccccc3)n12	10.2	3.9	93.5*	27.5	i	-5.8	2.0	1.2	1.1	2.5
CNc1n[nH]c(=S)s1	-15.3	0.9	33.5	-7.2	i	3.0	9.0	0.0	4.3	3.8
S=c1[nH]nc(-c2ccccc2)n1/N=C/c1c[nH]c2ccccc12	3.1	-5.1	1.2	21.5	nt	nt	nt	nt	0.5	nt
CCOC(=O)N1CCN(C(=O)CN(CC)S(=O)(=O)c2cc(C)ccc2OC)CC1	0.8	-3.1	-2.7	-23.0	i	9.6	11.3	1.5	1.5	-1.0
O=C(CCN1C(=O)c2ccccc2C1=O)Nc1sc2c(c1C(=O)NCC1CCCO1)CCC2 (stereo not given)	1.1	-0.5	24.2	4.8	nt	nt	nt	nt	3.1	nt
COC(=O)c1ccc(OCC(=O)NC2CCCCCCC2)cc1	nt	0.4	1.0	nt	i	1.3	-52.8	0.9	nt	-2.4
C/C(=N/NC(=O)c1ccn(C)n1)c1ccncc1	-4.1	-18.6	-1.6	-4.4	i	7.3	14.8	-0.6	0.0	-0.3
COc1ccc(/C=C(/NC(=O)c2ccccc2)C(=O)N/N=C/c2sccc2C)cc1	40.1	0.9	-3.7	-19.7	i	3.8	4.9	-3.3	0.5	0.6
CCc1noc(C)c1C(=O)NCCc1c[nH]c2ccccc12	-1.0	nt	12.4	30.6	i	8.9	10.6	-1.0	5.2	-18.9
CCOC(=O)N1CCN(C(=O)C2CCCN(S(=O)(=O)c3ccc(OCC)cc3)C2)CC1 (stereo not given)	-7.2	-0.6	-10.8	0.1	i	-2.1	-2.9	-0.8	-2.7	1.4
Oc1ccc(Oc2ccc(Oc3ccc(O)cc3)cc2)cc1	-70.3	4.6	2.3	3.4	i	-53.2	-77.8	-19.1	-2.8	-1.1
COc1ccc(CCNC(=O)/C=C/C(=O)O)cc1OC	5.7	-1.4	-0.8	-18.4	i	8.4	12.2	-4.3	nt	-1.0
Cc1cccc(-n2c(SCC(=O)Nc3ncc(Cl)cc3Cl)nc3ccccc32)c1	27.0	-1.4	nt	44.6	i	nt	nt	nt	0.3	5.2
C[C@@H](C(=O)N1CCNCC1)n1cc(CCC(=O)O)nn1	-13.6	-0.5	1.4	-8.5	i	3.4	0.4	-3.4	-1.8	1.3
COc1ccc(C2CC(c3ccc(OC)c(OC)c3)=NN2S(C)(=O)=O)cc1 (stereo not given)	-2.8	-1.7	0.5	-0.4	i	-0.3	-3.3	-11.3	-0.6	-20.6
O=c1c2ccccc2nc(/C=C/c2cccc([N+](=O)[O-])c2)n1CCO	9.0	3.8	0.7	24.1	nt	24.2	19.3	4.4	-4.7	-3.4
COc1ccc(C(=O)[C@H]2[C@H]3C(=O)N(c4ccccc4)C(=O)[C@H]3C3C=CC=NN32)cc1 (stereo not given in full)	2.7	nt	-6.3	-0.8	i	4.5	9.9	3.1	-0.1	-2.4
CC(=O)Nc1ccc(NC(=S)NC(=O)C2CCCC2)cc1	-7.8	0.4	-5.3	-1.8	i	1.9	4.1	2.7	-4.7	-0.4
COCCn1c(SCC(=O)N2CCCCC2)nc2cccnc21	-5.5	nt	4.6	-0.6	nt	nt	nt	nt	?	nt
COc1ccc(NC(=O)CN(C)C(=O)c2csc3c2CCCC3)cc1	-5.2	0.4	5.3	-9.0	i	2.6	-1.9	0.0	nt	-5.0
Cc1cc2cc(CNC(=S)NCc3ccccc3)ccc2n1C	-4.7	-2.4	-5.4	-22.8	nt	-20.3	-15.6	59.9	-1.4	1.1
Cc1nnc(SCC(=O)Nc2ccc(N3CCOCC3)cc2)n1Cc1ccccc1	nt	-2.4	98.7*	nt	i	2.2	3.3	-1.8	nt	0.8
CCc1ccc(NC(=O)NCCN2CCCCC2)cc1	-4.7	1.3	-4.7	2.9	i	23.2	13.1	1.1	4.2	5.7
CCOc1ccc(OCC)c(NC(=O)CCn2c(=O)oc3ccccc32)c1	2.0	1.9	3.6	6.1	nt	nt	nt	nt	-2.5	nt
CCOc1ccc(C2C(C#N)=C(N)Oc3cc(C)[nH]c(=O)c32)cc1OC (stereo not given)	-10.5	-5.4	-16.2	-11.8	i	-10.2	-10.1	0.2	2.6	-3.5

Sorted by value in RanGTP-Impb inh (descending): three from the list above.
SMILES | RanGTP-Impb inh
O=C(CCN1C(=O)c2ccccc2C1=O)Nc1sc2c(c1C(=O)NCC1CCCO1)CCC2 (stereo not given) | 3.1
CCOc1ccc(OCC)c(NC(=O)CCn2c(=O)oc3ccccc32)c1 | -2.5
O=c1c2ccccc2nc(/C=C/c2cccc([N+](=O)[O-])c2)n1CCO | -4.7

Reprinted at random: 3 compounds from above
SMILES	T cruzi inh	Beta apoptosis	ALR inh	Calb FLC	FGF22 binding	Ecoli rRNA inh	Ecoli rRNA inh OD600	Ecoli rRNA inh RFP	RanGTP-Impb inh	AF4-AF9 inh
Cc1cccc(-n2c(SCC(=O)Nc3ncc(Cl)cc3Cl)nc3ccccc32)c1	27.0	-1.4	nt	44.6	i	nt	nt	nt	0.3	5.2
COC(=O)c1ccc(OCC(=O)NC2CCCCCCC2)cc1	nt	0.4	1.0	nt	i	1.3	-52.8	0.9	nt	-2.4
CCc1noc(C)c1C(=O)NCCc1c[nH]c2ccccc12	-1.0	nt	12.4	30.6	i	8.9	10.6	-1.0	5.2	-18.9

More records follow:
SMILES	T cruzi inh	Beta apoptosis	ALR inh	Calb FLC	FGF22 binding	Ecoli rRNA inh	Ecoli rRNA inh OD600	Ecoli rRNA inh RFP	RanGTP-Impb inh	AF4-AF9 inh
COC(=O)CC(NS(=O)(=O)c1cccs1)c1ccc2c(c1)OCO2 (stereo not given)	-7.6	-2.9	-10.0	-2.4	i	5.4	2.3	1.2	2.4	-0.9
O=C(CC1=NC2(CCCC2)Cc2ccccc21)N1CCOCC1	-4.5	-2.4	-4.3	10.9	nt	nt	nt	nt	?	nt
CCCCNC(=O)COn1nnc2ccc(S(=O)(=O)N3CCOCC3)cc21	-3.2	-1.0	-4.4	-5.1	i	5.9	8.5	-0.9	nt	9.9
CCCCNC(=O)Nc1nnc(-c2ccc(Cl)cc2)o1	-1.6	2.0	11.7	-4.0	nt	nt	nt	nt	-3.2	nt
CCNC(=O)Nn1c(C)nnc1C	-4.9	-6.6	-2.4	-1.1	nt	nt	nt	nt	-4.0	nt
CC(C)(C)NC(=O)c1nn2c(C(F)(F)F)cc(-c3ccccc3)nc2c1Br	0.5	nt	-0.8	3.7	i	12.3	4.3	0.0	6.0	-0.6
CCOc1cccc2sc(N(CCN(C)C)C(=O)CCS(=O)(=O)c3ccccc3)nc12	-4.4	-3.1	nt	15.0	i	-2.3	-4.3	-1.8	0.9	-0.7
CCOc1cccc(C(=O)N/N=C/c2ccoc2)c1	nt	2.7	-0.6	-6.5	i	15.4	17.3	0.3	nt	1.7
COc1cc(-c2cc(-c3nnco3)c3ccccc3n2)cc(OC)c1OC	9.5	4.5	53.1	4.0	i	-14.4	-0.3	-2.7	0.7	1.1
COc1ccccc1NC(=O)C(C)OC(=O)C1COc2ccccc2O1 (stereo not given)	nt	0.2	nt	nt	i	3.8	11.8	-2.2	nt	-21.1
CC(C)CC(NC(=O)C(NC(=O)C(Cc1ccc(OCc2ccccc2)cc1)NC(=O)OC(C)(C)C)C(C)C)C(N)=O (stereo not given)	-10.8	-0.8	-12.6	-2.5	nt	nt	nt	nt	0.4	nt
CC(C)Nc1nc(NC(C)(C)C)nc(Oc2ccc(=O)n(C)n2)n1	-1.9	-1.3	-1.9	-0.1	i	7.8	-2.0	-2.5	-2.1	4.3
COc1ccc(C(c2sc3nc(C)nn3c2O)N2CC(C)OC(C)C2)cc1OC (stereo not given)	-11.2	-6.9	-3.8	11.1	i	1.1	11.3	-2.1	-0.9	-11.7
CC(C)=CC(=O)OCC(=O)Nc1ncc(Cl)c(C)c1Cl	2.5	-6.9	0.2	6.6	nt	nt	nt	nt	2.0	nt
Cc1cc(C(=O)Cn2cnc3cc(F)ccc3c2=O)c(C)n1C1CC1	nt	0.2	-1.9	nt	i	11.3	7.6	-1.3	nt	4.5
O=C(O)/C=C/C(=O)NCc1cn(-c2ccccc2)nc1-c1cccc(Br)c1	-0.8	-0.1	57.2	19.7	i	-34.7	-57.7	-15.1	2.7	-1.4
Cc1csc(NC(=O)Cc2ccc(Br)cc2)n1	3.7	1.3	nt	-1.5	i	-23.9	-45.0	2.9	-2.5	0.9
CCCOc1ccc(-c2nc[nH]c2[N+](=O)[O-])cc1	-12.1	-0.1	-0.9	8.1	i	13.8	6.5	3.3	-2.6	-1.7
O=C(Nc1ccc2c(c1)C(=O)NC2=O)c1cc(Cl)ccc1Cl	2.9	-14.2	-2.0	-3.5	i	-3.0	-2.8	-1.1	-1.4	1.2
CCC(=O)N1c2ccc(S(=O)(=O)N(CCO)Cc3ccccc3)cc2CC1C (stereo not given)	-2.3	-10.9	-11.0	-47.0	nt	nt	nt	nt	1.1	nt
O=C(CSc1nc2ccccc2c(=O)n1NC(=O)c1ccccc1)c1ccccc1	3.7	0.5	18.7	-5.0	nt	nt	nt	nt	0.3	nt
COc1ccc(NC(=O)CN(C)C(=O)c2ccc(COc3ccccc3)cc2)cc1	nt	-5.0	-2.1	nt	i	10.4	12.7	-0.3	nt	-2.7
CC1CCN(S(=O)(=O)c2ccc(NC(=S)NC(=O)c3ccc(Cl)cc3)cc2)CC1	-1.8	7.1	nt	-10.0	nt	nt	nt	nt	6.9	nt
COc1cccc(NC(=O)C(=O)N/N=C/c2cc(C)n(-c3ccc(Cl)c(Cl)c3)c2C)c1	8.6	2.6	27.7	5.8	i	-17.9*	-2.8*	-0.7*	0.5	5.5
C#CCNc1c(C)c(C)nc2ncnn12	-9.3	-1.6	-6.4	?	nt	nt	nt	nt	1.1	nt
Cc1sc2ncnc(SCC(=O)N3CCCC(C(N)=O)C3)c2c1C (stereo not given)	-9.5	-5.0	-5.2	4.4	nt	6.3	4.8	-2.9	3.3	-0.2
O=C(NCCN1CCCCC1)c1cc(Cl)ccc1Cl	7.2	0.3	nt	-2.2	i	16.0	9.6	1.8	2.8	2.0

Single values from the entries so far:
CC1CCN(S(=O)(=O)c2ccc(NC(=S)NC(=O)c3ccc(Cl)cc3)cc2)CC1 in RanGTP-Impb inh reads 6.9
CCC(=O)N1c2ccc(S(=O)(=O)N(CCO)Cc3ccccc3)cc2CC1C (stereo not given) in ALR inh reads -11.0

These rows are one share of the data; the hit share may differ from the screen's.
